NOMO-1 viab – STK33 inhibitor candidate reducing NOMO-1 cell viability; 7.5% of 37,000 active; AID 2330; inhibition, % (concentration not given with the values); NOMO-1 AML viability, CellTiter-Glo luminescence, 72 h;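 active = most replicates above 80%; inconclusive = exactly half above 80%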;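 also: wells of about 30 µL received 25 nL stock; 0% = median of vehicle wells and 100% = reference inhibitor level; the first replicate is given; inactives centre near 10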
Starred values were filed as active, the others as inactive; ? = inconclusive. This is a subset (hit frequency here may not be typical).

canonical_smiles,NOMO-1 viab
COc1ccc(NC(=O)Nc2ccc3c(c2)C(=O)N([C@@H](C)CO)C[C@@H](C)[C@@H](CN(C)S(=O)(=O)c2ccc(OC)cc2)O3)cc1,28.1
C[C@@H]1CN([C@@H](C)CO)C(=O)c2cc(NC(=O)Nc3ccc4c(c3)OCO4)ccc2O[C@H]1CN(C)Cc1ccccc1,33.9
COc1ccccc1NC(=O)Cc1c(OC)ccc2cc(Br)ccc12,34.2
c1ccc(-c2oc3ncnc(NCCN4CCOCC4)c3c2-c2ccccc2)cc1,39.3
CN1C[C@H](C(=O)N[C@]2(C)O[C@@]3(O)[C@@H]4CCCN4C(=O)[C@H](Cc4ccccc4)N3C2=O)C[C@@H]2c3cccc4[nH]cc(c34)C[C@H]21,24.5
C[C@@H]1CN([C@@H](C)CO)C(=O)c2cc(NC(=O)Nc3ccc(C(F)(F)F)cc3)ccc2O[C@H]1CN(C)S(=O)(=O)c1cccs1,93.1*
Cc1ccc([N+](=O)[O-])c(OCCSc2ncccn2)c1,25.0
COc1ccccc1-n1nnnc1SCC(=O)NC1CCCC1,12.9
CS/C(=N\S(=O)(=O)c1ccccc1)N1CCCC1,3.6
COc1cc2c(cc1O)CCC1C2CC[C@@]2(C)C1CC[C@@H]2O (stereo partly specified),97.4*
Cc1ccc(S(=O)(=O)Nc2ccc3c(c2)CC(=O)N([C@@H](C)CO)C[C@H](C)[C@@H](CN(C)S(=O)(=O)c2cn(C)cn2)O3)cc1,9.3
COc1ccc(NC(=O)Nc2ccc3c(c2)C(=O)N([C@H](C)CO)C[C@H](C)[C@@H](CN(C)S(=O)(=O)c2ccccc2)OCCCC[C@@H](C)O3)cc1,14.0
CC1=C(C(=O)OCC(C)C)C(c2ccc(Cl)cc2)NC(=O)N1C (stereo unspecified),32.7
O=c1c2c3c(sc2[nH]c(=S)n1Cc1ccccc1)CCC3,34.0
Cc1ccc(NC(=O)C(C)Sc2nnc(-c3ccc([N+](=O)[O-])cc3)n2-c2ccccc2)cc1 (stereo unspecified),25.0
C[C@@H]1CN([C@@H](C)CO)C(=O)c2cc(NC(=O)CCC(F)(F)F)ccc2O[C@@H]1CN(C)Cc1ccc(Cl)c(Cl)c1,93.2*
CC(C)(C)c1ccc(OCC(=O)Nc2ncn[nH]2)c(Br)c1,10.1
COc1cccc(NC(=O)CN(c2ccc(Br)c(C)c2)S(C)(=O)=O)c1,4.7
O=C(NCCCO)c1cc2ccccc2oc1=O,3.3
C[C@@H]1CN([C@H](C)CO)C(=O)c2cccc(NC(=O)C3CC3)c2O[C@@H]1CN(C)C(=O)Nc1cccc2ccccc12,1.9
C[C@@H]1CN([C@@H](C)CO)C(=O)c2cc(NS(=O)(=O)c3ccc(Cl)cc3)ccc2O[C@H]1CN(C)Cc1ccccc1,28.2
C[C@H]1CN([C@@H](C)CO)C(=O)c2cc(NC(=O)C3CCCCC3)ccc2O[C@H]1CN(C)Cc1ccc(Oc2ccccc2)cc1,41.9
C[C@H]1CN([C@@H](C)CO)C(=O)c2cc(NS(C)(=O)=O)ccc2O[C@H]1CN(C)C(=O)Nc1cccc2ccccc12,14.8
O=C(CSc1nnnn1-c1ccccc1)Nc1cccc(Br)c1,-8.4
O=C(CSc1nnc(-c2ccccc2Cl)o1)c1cc2ccccc2oc1=O,23.2
C[C@@H]1CCCCO[C@H](CN(C)CC2CCCCC2)[C@@H](C)CN([C@H](C)CO)C(=O)c2cc(NS(=O)(=O)c3ccc(F)cc3)ccc2O1,32.2
Cc1cc(C(=O)Nc2cccc3c2O[C@@H](CN(C)C(=O)Nc2c(C)noc2C)[C@H](C)CN([C@@H](C)CO)C3=O)n(C)n1,-26.2
Cc1noc(C)c1NC(=O)N(C)C[C@@H]1Oc2ccc(NC(=O)Nc3ccc(F)cc3)cc2CC(=O)N([C@H](C)CO)C[C@@H]1C,-5.7
Cc1ccc(S(=O)(=O)c2nc(-c3ccccc3)oc2NCCN2CCOCC2)cc1,-3.8
C[C@H](CO)N1C[C@H](C)[C@H](CN(C)Cc2ccccc2)Oc2c(NS(=O)(=O)c3ccc(Cl)cc3)cccc2C1=O,22.1
Cc1cc(=O)[nH]c(SCC(=O)Nc2ccc(Br)cc2F)n1,-4.9
C[C@@H]1CN([C@H](C)CO)C(=O)Cc2cc(NC(=O)CCC(F)(F)F)ccc2O[C@@H]1CN(C)Cc1ccc(Oc2ccccc2)cc1,83.6*
O=C(O)CCC(=O)Nc1cccc(-c2nc3ccccc3[nH]2)c1,29.1
c1ccc(-c2noc(COc3cccc4ccccc34)n2)nc1,23.5
C[C@@H]1CN([C@H](C)CO)C(=O)Cc2cc(NS(=O)(=O)c3ccc(F)cc3)ccc2O[C@@H]1CN(C)Cc1ccccc1,13.0
COc1ccc(NC(=O)N(C)C[C@@H]2Oc3c(NC(=O)NC(C)C)cccc3C(=O)N([C@H](C)CO)C[C@H]2C)cc1,-6.4
O=C(CN1C(=O)C2C3CC(c4ccccc4)C(C3)C2C1=O)Nc1cccc([N+](=O)[O-])c1 (stereo unspecified),64.2
COc1ccc(S(=O)(=O)Nc2ccc3c(c2)CC(=O)N([C@H](C)CO)C[C@@H](C)[C@@H](CN(C)S(=O)(=O)c2ccc(OC)cc2)O3)cc1,-6.6
Cc1noc(C)c1NC(=O)N(C)C[C@@H]1Oc2ccc(NC(=O)CCCCCC(=O)Nc3ccccc3N)cc2C(=O)N([C@H](C)CO)C[C@H]1C,15.2
Cc1ccc(N(CC(=O)N2CCOCC2)S(=O)(=O)c2ccccc2)cc1,19.2
CCOC(=O)c1ccc(NC(=O)CSc2nccc(=O)[nH]2)cc1,6.4
NC(=O)CN1C(=O)C(O)(CC(=O)c2ccncc2)c2ccccc21 (stereo unspecified),-4.5
C[C@@H]1CN([C@H](C)CO)C(=O)c2cccc(NC(=O)c3ccc(-c4nccs4)cc3)c2O[C@@H]1CN(C)Cc1ccc(-c2ccccc2)cc1,60.5
C[C@@H]1CCCCO[C@H](CN(C)Cc2ccc(C(=O)O)cc2)[C@@H](C)CN([C@H](C)CO)C(=O)c2cc(NC(=O)Nc3cccc4ccccc34)ccc2O1,-12.3
Cc1ccnc(NC(c2ccsc2)c2ccc3ccc(C)nc3c2O)c1 (stereo unspecified),89.1*
CNC[C@H]1Oc2c(NC(=O)C3CC3)cccc2C(=O)N([C@H](C)CO)C[C@H]1C,18.1
C[C@H](CO)N1C[C@H](C)[C@@H](CN(C)S(=O)(=O)c2cccs2)Oc2c(NC(=O)NC3CCCCC3)cccc2C1=O,33.0
O=[N+]([O-])c1cccc(S(=O)(=O)NCCOc2ccccc2-c2ccccc2)c1,35.0
S=C(NCC1CC1)Nc1ccc(Cl)cc1,34.8
C[C@@H]1CN([C@@H](C)CO)C(=O)c2cccc(NS(=O)(=O)c3cn(C)cn3)c2O[C@H]1CN(C)C(=O)Nc1ccccc1,6.7
C[C@@H]1CCCCO[C@@H](CN(C)CC2CCCCC2)[C@@H](C)CN([C@H](C)CO)C(=O)c2cc(NC(=O)Nc3ccc4c(c3)OCO4)ccc2O1,22.2
C[C@H]1CN([C@@H](C)CO)C(=O)Cc2cc(NS(=O)(=O)c3ccccc3)ccc2O[C@H]1CN(C)Cc1ccccc1,28.9
Cc1onc(-c2c(F)cccc2Cl)c1C(=O)N1CC(Oc2ccc(Cl)cc2)C1,40.8
CCOc1ccc(NC(=O)C(C)Sc2ccccn2)cc1 (stereo unspecified),-12.3
C[C@@H]1CCCCO[C@@H](CN(C)C(=O)Nc2ccc3c(c2)OCO3)[C@@H](C)CN([C@H](C)CO)C(=O)c2cc(NC(=O)CCC(F)(F)F)ccc2O1,9.4
Cc1ccc(C(=O)C2C(=O)N(c3ccccc3)C(=O)N(c3ccccc3)C2=O)cc1,2.1

Going on with the list:
compound | NOMO-1 viab
COc1ccc(NC(=O)N(C)C[C@@H]2OCCCC[C@@H](C)Oc3ccc(NS(=O)(=O)c4cn(C)cn4)cc3C(=O)N([C@H](C)CO)C[C@@H]2C)cc1 | -34.6
CC(=O)OC[C@H]1O[C@@H](Oc2c(-c3ccc(O)c(O)c3)oc3cc(O)cc(O)c3c2=O)[C@H](O)[C@@H](O)[C@@H]1O | 20.3
COc1ccc(S(=O)(=O)Nc2cccc3c2O[C@H](CN(C)C(=O)NC2CCCCC2)[C@@H](C)CN([C@@H](C)CO)C3=O)cc1 | 21.6
C[C@@H]1CN([C@H](C)CO)C(=O)c2cc(NS(=O)(=O)c3ccc(Cl)cc3)ccc2O[C@H]1CN(C)C(=O)Nc1ccc2c(c1)OCO2 | 7.8
C[C@H]1CN([C@@H](C)CO)C(=O)c2cccc(NC(=O)NC3CCCCC3)c2O[C@@H]1CN(C)S(C)(=O)=O | 10.6
CC(C)NC(=O)N(C)C[C@H]1Oc2ccc(NC(=O)c3ccncc3)cc2CC(=O)N([C@H](C)CO)C[C@H]1C | 22.9
COc1ccc(CN(C)C[C@@H]2OCCCC[C@@H](C)Oc3ccc(NC(=O)CCC(F)(F)F)cc3C(=O)N([C@H](C)CO)C[C@@H]2C)cc1 | 21.9
C[C@H]1CN([C@@H](C)CO)C(=O)Cc2cc(NS(=O)(=O)c3ccc(Cl)cc3)ccc2O[C@H]1CN(C)C(=O)Nc1ccccc1 | 5.4
N#Cc1ccc(NC(=O)C2CCCCC2C(=O)O)cc1 (stereo unspecified) | -5.1
O=C(Cn1cc([N+](=O)[O-])cn1)Nc1ccc(F)cc1 | -2.8
Cc1ccc(S(=O)(=O)Nc2ccc3c(c2)CC(=O)N([C@H](C)CO)C[C@@H](C)[C@@H](CN(C)Cc2ccc(C(F)(F)F)cc2)O3)cc1 | 114.5*
COc1ccc(S(=O)(=O)N(C)C[C@H]2Oc3ccc(NC(=O)CCCCCC(=O)Nc4ccccc4N)cc3CC(=O)N([C@H](C)CO)C[C@H]2C)cc1 | 26.6
COCCNC(=O)Nc1ccc2nc(-c3ccccn3)c(-c3ccccn3)nc2c1 | 27.1
C[C@H](CO)N1C[C@H](C)[C@H](CN(C)S(=O)(=O)c2ccccc2)Oc2ccc(NC(=O)Nc3ccc(C(F)(F)F)cc3)cc2C1=O | ?
COc1ccc(Cl)cc1CN1CCC(CNC(=O)Nc2cccc(Cl)c2)CC1 | 76.0
Cc1cc(C(=O)Nc2cccc3c2O[C@H](CN(C)Cc2ccc(C(F)(F)F)cc2)[C@@H](C)CN([C@@H](C)CO)C3=O)n(C)n1 | 35.7
C[C@@H]1CCCCO[C@@H](CN(C)C(=O)Nc2ccccc2)[C@@H](C)CN([C@H](C)CO)C(=O)c2cc(NC(=O)Nc3ccc(C(F)(F)F)cc3)ccc2O1 | 70.1
Cc1ccc(Cl)cc1NC(=O)CSc1nnc(-c2ccccc2)n1-c1ccccc1 | 19.7
Cc1c(C(=O)Nc2sc3c(c2C(=O)NCc2ccco2)CCCC3)oc2ccccc12 | 105.9*
O=C(CSc1nnnn1-c1ccccc1)N1N=CCC1c1ccccc1 (stereo unspecified) | 2.7
C[C@H]1CN([C@@H](C)CO)C(=O)Cc2cc(NS(=O)(=O)c3cccs3)ccc2O[C@H]1CN(C)C(=O)Nc1ccc(C(F)(F)F)cc1 | 9.8
C[C@@H]1CCCCO[C@@H](CN(C)C(=O)CCC(F)(F)F)[C@@H](C)CN([C@H](C)CO)C(=O)c2cc(NS(=O)(=O)c3cn(C)cn3)ccc2O1 | 6.4
COc1ccc(NC(=O)Nc2ccc3c(c2)CC(=O)N([C@H](C)CO)C[C@@H](C)[C@@H](CN(C)C(=O)NC(C)C)O3)cc1 | 24.2
CNC[C@H]1Oc2c(NC(=O)c3ccncc3)cccc2C(=O)N([C@H](C)CO)C[C@H]1C | -2.5
O=C(Cn1ccc([N+](=O)[O-])n1)NCC1CCCO1 (stereo unspecified) | -7.6
NC(=O)C1(N2CCCCC2)CCN(C(=O)CSc2nc3ccccc3o2)CC1 | -21.2
C[C@@H]1CN([C@@H](C)CO)C(=O)c2cccc(NC(=O)c3cnccn3)c2O[C@@H]1CN(C)S(=O)(=O)c1ccccc1 | 1.0
COc1ccc(NC(=O)N(C)C[C@@H]2Oc3c(cccc3N(C)C)C(=O)N([C@@H](C)CO)C[C@H]2C)cc1 | 34.7
Cc1noc(C)c1S(=O)(=O)Nc1ccc2c(c1)C(=O)N([C@@H](C)CO)C[C@@H](C)[C@H](CN(C)C(=O)Nc1ccc(C(F)(F)F)cc1)O2 | 10.3
Cc1noc(C)c1S(=O)(=O)Nc1ccc2c(c1)C(=O)N([C@H](C)CO)C[C@H](C)[C@H](CN(C)C(=O)NC(C)C)OCCCC[C@@H](C)O2 | 33.8
Cc1ccc(S(=O)(=O)N(C)C[C@@H]2Oc3ccc(NS(C)(=O)=O)cc3C(=O)N([C@H](C)CO)C[C@H]2C)cc1 | -2.6
C[C@H](CO)N1C[C@H](C)[C@H](CN(C)C(=O)Nc2ccc(F)cc2)Oc2ccc(NC(=O)Nc3ccc(C(F)(F)F)cc3)cc2CC1=O | 45.0
C[C@@H]1CN([C@H](C)CO)C(=O)c2cccc(NC(=O)C3CCOCC3)c2O[C@@H]1CN(C)Cc1ccncc1 | -2.9

Assay outcomes (PubChem)
